# Assay outcomes: PubChem BioAssay, several laboratories
# WT yeast gro inh: growth inhibition of WT yeast, mitochondrial fusion screen; actives 2.1% (n = 190,000); inhibition, % at 10 µM; mitochondrial fusion phenotypic screen, WT strain; in the data active = inhibition above about 58%; tested in S. cerevisiae
# MT stabilize HCS: stabilizes microtubules in HeLa cells. % tubulin-high responders, % at 10 µM. actives 0.83% (n = 200,000). HeLa tubulin immunostaining HCS, 24 h; share of cells brighter than vehicle mean+2SD;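 active = plate Z-score above 3 for both tubulin-high and condensed-nucleus cell shares, with cell loss under 80%, at 10 µM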;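 note: anti alpha tubulin signal scored within the nucleus-defined area of each cell; some results filed as inactive read as strong as hits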
# AID2073: inhibitors of Mint1-CaV2.2 protein interaction, biochemical, HTRF (AID 2073) | one-dose inhibition, % at 20 µM; IC50 in µM for titrated hits | actives 0.19% (n = 290,000) | HTRF protein-protein interaction, Mint1-CaV2.2; higher % means a stronger effect; in the data active = inhibition mostly above about 51%, no sharp cut-off; note: some results filed as inactive read as strong as hits
# HIV peptide binding: cell-free HIV fusion peptide-binding blockers – biochemical, uHTS, fluorescence dequenching, primary screen (AID 1986); cell-free peptide binding, fluorescence dequenching, 30 min; higher % means a stronger effect; actives 0.3% (n = 290,000); inhibition, % at 20 µM, or IC50 in µM where a hit was titrated; in the data active = inhibition mostly above about 52%, no sharp cut-off; inactive = mostly below about 76%; note: some results filed as inactive read as strong as hits
# Ins promoter up: MIN6 insulin promoter up-regulation | MIN6 insulin promoter-GFP reporter, high-content imaging; active compounds read high | z-score at 5 µM | actives 0.3% (n = 190,000) | AID 1625;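 active = z-score above 3 at 5 µM with at least 500 cells counted in the well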
# Autophagy HCS: modulators of autophagy; MEF GFP-LC3 puncta imaging; test concentration mostly 10 µM; calls only at 10 µM (by protocol); actives 0.98% (n = 190,000); AID 463193;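 active = percentage of spot-positive cells more than 3 SD above its plate mean, without a fluorescence outlier flag or 80% toxicity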;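 note: spot-positive cell cutoff set from DMSO-treated cells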
# Yfh1-off respiration: enhancers of respiration in Yfh1-depleted yeast, dose response, Friedreich's ataxia, plus single-dose screen (AID 1465); S. cerevisiae Yfh1-off respiration, WST-1 reduction, 72 h; higher fold induction means a stronger effect; fold induction at 50 µM, or EC50 in µM where a hit was titrated; actives 0.074% (n = 220,000);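 active = fold induction of absorbance versus untreated yeast above a set limit, then at least 30% activation at any dose in follow-up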;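 note: activators that raise dye reduction in frataxin-depleted yeast; strong numbers were not always called active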
# Dynein transport: blocks dynein driven cargo transport along microtubules; actives 0.47% (n = 220,000); AID 1381; z-score, hits read low; 3617.4 mouse cells, GR-EGFP nuclear translocation imaging; test concentration mostly 20 µM; stimulated with dexamethasone, 1 µM; active compounds read low;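 active = plate z-score of nuclear minus cytoplasmic receptor signal below a set negative limit, without overly bright fluorescence or cell loss, cut at about -3.5 in these data, passing the limit was not always enough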;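 note: z-score of nuclear minus cytoplasmic ring GR-EGFP intensity difference per well; some compounds called inactive have numbers as strong as hits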
#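 Medium: Induction medium lacking tetracycline, stripped serum | Probe or stimulus: 1.0 µM final dexamethasone stimulus | Schedule: 48 h induction, then 1 h compound, then 30 min agonist, 37 °C | Signal: Automated 10x imaging of fixed Hoechst-stained cells | Evaluation: Per-cell GR-EGFP intensity, nucleus versus surrounding cytoplasmic ring, well-averaged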
# WT yeast gro inh mutant strain: also measured in WT yeast gro inh; calls as there; inhibition, %; mitochondrial fusion phenotypic screen, mutant strain inhibition
# Dynein transport cytoplasmic EGFP: recorded beside Dynein transport, whose call it bears; z-score; measured here: cytoplasmic GR-EGFP intensity; active compounds read high
# Dynein transport nuclear GR-EGFP: recorded beside Dynein transport, whose call it bears; z-score; measured here: nuclear GR-EGFP intensity;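 lower value marks the stronger effect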
# Dynein transport cell count: second read-out of Dynein transport, no call of its own (marks repeat the call); z-score; measured here: cell count per field
# Ins promoter up cell count: also measured in Ins promoter up; calls as there; cell count; measured here: cytotoxicity, nuclei count;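 total cells summed across four imaged fields per well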
# MT stabilize HCS Hoechst-high %: also measured in MT stabilize HCS; calls as there; % Hoechst-high responders; measured here: nuclear condensation Hoechst responders;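 share of cells brighter than vehicle mean plus two SD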
# MT stabilize HCS cytotoxicity %: further read-out of MT stabilize HCS, marked with its call; toxicity, %; measured here: cytotoxicity by cell density;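 0% = mean cell density of plate MIN control wells and 100% = no cells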
# Autophagy HCS cell loss 18 h: also measured in Autophagy HCS; calls as there; toxicity, %; measured here: cell loss, nuclei count;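 cell loss after 18 h compound exposure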
# * hit, by the source's call; i = inactive; / = no result given. An excerpt; count on the stated rates, not on these rows.
# Sequence of screens: WT yeast gro inh	WT yeast gro inh mutant strain	MT stabilize HCS	MT stabilize HCS Hoechst-high %	MT stabilize HCS cytotoxicity %	AID2073	HIV peptide binding	Ins promoter up	Ins promoter up cell count	Autophagy HCS	Autophagy HCS cell loss 18 h	Yfh1-off respiration	Dynein transport	Dynein transport cytoplasmic EGFP	Dynein transport nuclear GR-EGFP	Dynein transport cell count
CCN(/C=N/c1sc2c(c1C#N)CCCCC2)CC
 : 25	24	4.7	1.4	4.6	-5%	0.5%	-0.22	1513	i	-4	i	0.59	-0.18	0.42	-0.55
O=C(O)CCn1nnc(-c2cccs2)n1
 : 3	-6	5.1	2.7	4.2	-1%	2.0%	-0.2	1475	i	12	i	-0.11	-0.21	0.19	-0.53
CN1CCN(C(=O)C(C(=O)c2ccc(F)cc2)n2ccccc2=O)CC1 (stereo not drawn)
 : 7	-24	4.0	1.5	2.6	23%	0.9%	-0.44	1513	i	-2	i	0.091	-0.24	-0.86	1
Cc1cc(C(F)F)n2ncc(C(=O)O)c2n1
 : -13	-25	2.9	2.2	9.8	5%	0.9%	0.07	1663	i	-7	i	-0.9	-0.23	-1	1
Cc1ccc(S(=O)(=O)N2CCC(=O)N2)cc1
 : 14	-2	1.2	2.0	7.1	2%	0.3%	-0.67	1492	i	-4	i	1.1	-0.24	0.14	0.11
Cc1ccc(-c2cnn(-c3cccc(C(F)(F)F)c3)c2N)cc1
 : 18	5	1.8	1.3	9.0	-8%	-4.5%	-0.99	981	i	10	i	-0.28	-0.14	0.55	-0.47
CC(C)c1cc(Nc2cccc(O)c2)cc(C(C)C)c1O
 : /	/	2.2	1.0	7.7	-18%	20%	-0.5	1666	i	-4	i	-0.41	-0.19	-0.21	0.33
CCOC(=O)c1cnc2cc3c(cn2c1=O)CCCC3
 : -1	-6	4.3	3.1	8.0	12%	2.4%	-0.81	1678	i	2	/	-0.91	-0.17	-0.11	0.63
CCCN1CCC(=NNC(=O)c2ccc(Br)o2)CC1
 : -35	-8	3.2	1.0	6.8	-1%	-2.5%	-0.47	1450	i	21	i	-0.056	-0.23	-0.33	1.2
Cc1ccc(C(=O)Nc2cc3c(cc2Cl)OCCCO3)cc1
 : 13	-14	2.0	1.7	9.3	1%	0.6%	-0.34	1682	i	-18	i	1.1	-0.22	1.2	-0.55
CCn1c(C)nc2cc(S(=O)(=O)C(F)F)ccc21
 : -2	10	1.8	1.9	9.8	-6%	-1.0%	-0.2	1595	i	8	i	0.37	-0.15	1.1	0.039
CCOC(=O)/C=C1\SCC(=O)N1CC(=O)Nc1ccc2c(c1)CCC2
 : 6	6	4.7	2.5	12	-2%	0.5%	-0.14	1647	i	-1	i	0.48	-0.2	0.15	-0.058
CCOc1ccc(C(=O)NN2C(=O)C3C4C=CC(O4)C3C2=O)cc1 (stereo not drawn)
 : 8	19	1.8	1.0	4.3	1%	-0.4%	0.45	1440	i	14	i	0.1	-0.2	-0.21	0.57
Cc1ccc(N2CCN(C(=O)c3ccccc3NC(=O)/C=C\C(=O)O)CC2)cc1
 : -7	-4	2.9	1.7	0.4	-5%	0.0%	0.09	1547	i	2	i	0.17	-0.2	0.72	-0.5
O=C(O)CCc1nc(-c2ccccc2)c(-c2ccccc2)o1
 : -4	8	/	/	/	-5%	0.6%	-0.04	1371	/	/	i	/	/	/	/

# Only MT stabilize HCS (2 entries from above):
structure	MT stabilize HCS
CCOc1ccc(C(=O)NN2C(=O)C3C4C=CC(O4)C3C2=O)cc1 (stereo not drawn)	1.8
Cc1ccc(N2CCN(C(=O)c3ccccc3NC(=O)/C=C\C(=O)O)CC2)cc1	2.9

# Next section.
# Sequence of screens: WT yeast gro inh	WT yeast gro inh mutant strain	MT stabilize HCS	MT stabilize HCS Hoechst-high %	MT stabilize HCS cytotoxicity %	AID2073	HIV peptide binding	Ins promoter up	Ins promoter up cell count	Autophagy HCS	Autophagy HCS cell loss 18 h	Yfh1-off respiration	Dynein transport	Dynein transport cytoplasmic EGFP	Dynein transport nuclear GR-EGFP	Dynein transport cell count
COc1ccc(/C=N/n2c(C)nnc2C)c(OC)c1OC
 : -2	-17	3.5	1.1	10	3%	-1.2%	0.68	1534	i	17	i	0.5	-0.13	0.32	-0.36
CCc1ccc(-n2c(=O)c3c(C)c(C(=O)N(C)C)sc3n(CC(=O)NCc3ccco3)c2=O)cc1
 : 12	-1	1.7	1.8	5.9	2%	0.2%	0.42	1503	i	10	i	0.026	-0.22	0.58	0.25
O=C(c1ccccc1)c1nn(-c2cccc(Cl)c2)c2nc(-c3ccccc3)cc(=O)n12
 : -9	-1	2.3	2.3	8.3	23%	-0.5%	-0.25	1648	i	-14	/	-0.058	-0.029	0.7	0.21
Cc1ccccc1NC(=O)CSc1nnc(-c2ccccc2)n1-c1ccccc1
 : -17	-9	5.3	2.1	2.3	-15%	0.0%	-0.45	1678	i	2	i	0.63	-0.22	-0.25	-0.68
CCOc1cc(C)c(S(=O)(=O)Nc2ccc3cn[nH]c3c2)cc1C
 : 18	4	3.2	1.8	6.9	3%	0.5%	4.2*	1323*	i	15	i	0.26	-0.2	0.63	0.91
Cc1cc(C(F)(F)F)nc(SCC(=O)NC2=NC(=O)C(C)S2)n1 (stereo not drawn)
 : -8	-5	2.7	1.8	7.0	-19%	-1.6%	-0.08	1874	i	-9	i	-0.92	0.51	-0.2	-0.19
C=CCn1c(SCc2ccc(C(=O)Nc3ccccc3)cc2)nnc1-c1ccccc1
 : 20	18	2.6	1.3	1.0	-2%	-1.5%	0.1	1450	i	-17	i	1.1	-0.24	1.2	0.95
C=C(C)c1cccc(C(C)(C)NC(=O)N2CCN(C/C=C/c3ccccc3)CC2)c1
 : 6	-24	3.2	1.9	11	0%	-1.6%	-1.8	855	i	-6	i	0.068	-0.24	-0.77	1.1
CCOc1ccc(N=C2NC(=O)S/C2=C\c2ccc(Cl)cc2)cc1
 : -2	-4	4.5	2.2	4.4	21%	-1.0%	-1.2	1410	i	8	i	-0.074	-0.2	-0.21	0.54
Cc1cccc(C)c1NC(=O)C(=O)NCc1ccccn1
 : -7	-6	1.5	1.9	8.8	0%	1.8%	0.84	1510	i	-1	i	-0.43	-0.19	-0.36	0.44
CCCCCOCC(O)CCC(=O)NN (stereo not drawn)
 : -8	16	2.9	1.7	1.9	-2%	-1.2%	-0.11	1534	i	-18	i	-0.14	-0.2	0.21	1.6
CCCCn1nc2cc(C(=O)NC[C@@H]3CCCO3)ccc2c1OCC
 : -6	15	2.9	1.5	6.9	22%	0.4%	0.04	1367	i	-22	i	-0.22	-0.21	0.41	0.089
CCOC(=O)Nc1sc(C(=O)N(C)C)c(C)c1C(=O)OCC
 : 9	6	2.8	2.0	5.6	-5%	-0.8%	-0.14	1623	i	0	i	-0.69	-0.13	-0.1	-0.61
CCOC(=O)C1=C(C)N(C)C(=S)NC1c1ccccc1Cl (stereo not drawn)
 : 7	22	1.7	1.1	6.2	-2%	-1.2%	-1.1	1534	i	13	i	0.95	-0.083	1.1	-0.061
O=C1Nc2ccc(F)cc2C12Nc1ccccc1-c1nnc(SCc3ccccc3Cl)nc1O2 (stereo not drawn)
 : 69*	45*	2.1	1.8	10	-16%	7.8%	-0.84	1625	i	2	i	0.0012	-0.095	-0.13	0.011

# Part of the list above in order of molar mass, falling.
# Sequence of screens: WT yeast gro inh	WT yeast gro inh mutant strain	MT stabilize HCS	MT stabilize HCS Hoechst-high %	MT stabilize HCS cytotoxicity %	AID2073	HIV peptide binding	Ins promoter up	Ins promoter up cell count	Autophagy HCS	Autophagy HCS cell loss 18 h	Yfh1-off respiration	Dynein transport	Dynein transport cytoplasmic EGFP	Dynein transport nuclear GR-EGFP	Dynein transport cell count
O=C(c1ccccc1)c1nn(-c2cccc(Cl)c2)c2nc(-c3ccccc3)cc(=O)n12
 : -9	-1	2.3	2.3	8.3	23%	-0.5%	-0.25	1648	i	-14	/	-0.058	-0.029	0.7	0.21
Cc1ccc(N2CCN(C(=O)c3ccccc3NC(=O)/C=C\C(=O)O)CC2)cc1
 : -7	-4	2.9	1.7	0.4	-5%	0.0%	0.09	1547	i	2	i	0.17	-0.2	0.72	-0.5
CCN(/C=N/c1sc2c(c1C#N)CCCCC2)CC
 : 25	24	4.7	1.4	4.6	-5%	0.5%	-0.22	1513	i	-4	i	0.59	-0.18	0.42	-0.55

# Next part.
# Sequence of screens: WT yeast gro inh	WT yeast gro inh mutant strain	MT stabilize HCS	MT stabilize HCS Hoechst-high %	MT stabilize HCS cytotoxicity %	AID2073	HIV peptide binding	Ins promoter up	Ins promoter up cell count	Autophagy HCS	Autophagy HCS cell loss 18 h	Yfh1-off respiration	Dynein transport	Dynein transport cytoplasmic EGFP	Dynein transport nuclear GR-EGFP	Dynein transport cell count
CCOC(=O)C1=C(C)N(Cc2ccccc2)C(=O)NC1c1ccc(OC)cc1 (stereo not drawn)
 : 16	-10	1.6	1.9	3.6	0%	-0.4%	0.15	1323	i	0	i	0.34	0.026	0.58	-1.2
COCCn1c(C)cc(C2=NNC(=Nc3ccc(F)cc3)SC2)c1C
 : 1	-1	2.5	1.8	10	-8%	26%	-0.34	1283	i	-1	i	-0.13	-0.06	0.2	0.41
O=C(Nc1ccsc1C(=O)NC1CC1)c1ccccc1
 : -3	1	3.9	1.9	5.6	5%	1.8%	0.07	1957	i	19	i	0.89	-0.21	0.14	-1
Cc1cc(=O)oc2cc(OCC(=O)Nc3nnc(CC(C)C)s3)ccc12
 : 14	10	2.3	1.7	6.3	3%	3.7%	-0.15	1704	i	-22	i	-0.52	-0.13	0.45	-0.45
CC(C)c1ccc(N=c2c([N+](=O)[O-])nn(-c3ccc4c(c3)OCCO4)n2O)cc1
 : 29	19	2.3	1.0	4.6	4%	1.8%	-0.15	1701	i	-19	i	-0.27	-0.19	-0.39	-0.46
COc1ccc(-c2nsc3c(N4CCCCC4)ncnc23)cc1
 : 8	4	2.8	1.4	7.4	14%	-2.3%	-0.23	1476	i	-7	i	-0.34	-0.23	-0.95	0.91
Cc1ccc(-c2noc(/C=C/c3ccccc3)n2)cc1
 : -16	-13	1.8	1.0	1.3	-6%	-2.3%	-0.18	1674	i	26	i	2.8	0.079	1.9	-1.9
O=C(OCC(=O)N1CCOCC1)c1ccc(Cl)nc1
 : 8	48	3.0	2.4	10	7%	4.6%	0.46	1682	i	3	i	1.4	-0.22	-0.57	-0.12
